YopH PTP inh = YopH tyrosine phosphatase inhibitors, primary screen, biochemical, fluorescence Ex485/Em525; AID 898, 2007; YopH tyrosine phosphatase [Yersinia enterocolitica]; inhibition, %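 (about 10 µM by stock and volumes)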; 0.16% of 140,000 active;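 active = inhibition of 50% or more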;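 also: controls were vehicle for no effect and minimum signal wells for full effect; inactives centre near -20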
RecA intein inh = Mtb RecA intein splicing inhibitors, primary screen, biochemical, fluorescence, HTS | Protein RecA (Mycobacterium tuberculosis (strain ATCC 25618 / H37Rv)), P9WHJ3 | cell-free RecA intein splicing | inhibition, %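 (about 9 µM by stock and volumes)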 | 0.75% of 290,000 active | AID 2221, 2009; in the data active = inhibition above about 30%; inconclusive = no clear call, values can overlap the other calls;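 also: 0% = vehicle wells and 100% = reference inhibitor control wells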
Target sequence (P9WHJ3 whole entry, looked up): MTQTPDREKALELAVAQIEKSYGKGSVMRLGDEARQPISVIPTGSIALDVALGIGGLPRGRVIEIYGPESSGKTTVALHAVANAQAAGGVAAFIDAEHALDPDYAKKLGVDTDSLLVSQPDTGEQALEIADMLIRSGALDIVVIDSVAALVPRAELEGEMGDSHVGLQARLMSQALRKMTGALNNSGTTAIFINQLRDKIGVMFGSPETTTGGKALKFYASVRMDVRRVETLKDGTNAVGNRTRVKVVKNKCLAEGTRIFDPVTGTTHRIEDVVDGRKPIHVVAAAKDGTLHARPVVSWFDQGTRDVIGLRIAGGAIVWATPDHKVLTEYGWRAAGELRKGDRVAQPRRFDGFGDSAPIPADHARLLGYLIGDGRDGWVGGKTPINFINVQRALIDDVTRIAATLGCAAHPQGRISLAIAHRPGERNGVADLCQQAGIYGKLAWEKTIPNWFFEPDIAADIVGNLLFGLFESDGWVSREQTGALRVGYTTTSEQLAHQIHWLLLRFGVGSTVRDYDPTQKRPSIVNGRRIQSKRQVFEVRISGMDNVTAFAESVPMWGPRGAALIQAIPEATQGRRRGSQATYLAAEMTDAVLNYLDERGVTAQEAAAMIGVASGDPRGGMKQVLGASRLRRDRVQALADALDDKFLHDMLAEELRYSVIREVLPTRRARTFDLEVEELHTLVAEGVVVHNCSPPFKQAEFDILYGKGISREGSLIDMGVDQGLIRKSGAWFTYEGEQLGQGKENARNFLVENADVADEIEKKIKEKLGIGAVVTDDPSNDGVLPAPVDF
Mtb betalactam = beta-lactam sensitization of Mtb H37Rv, H37Rv; M. tuberculosis H37Rv growth with meropenem, percent inhibition; hits of this screen are not shown here; inhibition, % at 25 µM; 0.27% of 330,000 active;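 active = about 74% or more and at least 40 points above the plate without the antibiotic, then above 30% in a dose series; inconclusive = first-round hits that could not be retested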;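 also: growth measured after seven days incubation then overnight dye step; 0% = bacteria only wells and 100% = bacteria with antibiotic; twin plates without the antibiotic show which effects depend on it; some results filed as inactive read as strong as hits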
Arbovirus anti = antivirals against arbovirus infection, primary screen, cell-based, full library, 10K replicate subset; arbovirus infection cell-based antiviral screen; inhibition, % at 10 µM; 0.37% of 200,000 active; AID 1251, 2008;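 active = inhibition from about 30%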;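 also: bluetongue infection of BSR cells; cell survival read as ATP light after 72 h; 0% = infected wells without compound and 100% = uninfected wells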
Mtb growth = M. tuberculosis H37Rv growth inhibitors, H37Rv strain (AID 1626). M. tuberculosis H37Rv growth inhibition; higher % means a stronger effect. one-dose inhibition, % at 10 µM; IC50 in µM for titrated hits. 0.95% of 220,000 active;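 active = confirmed in a dose series; inconclusive = inhibition above 80% but not taken into the dose series; inactive = below 80% or under 30% at every dose of the series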;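 also: bacteria incubated seven days before Alamar blue readout; 0% = bacteria only wells and 100% = bacteria with antibiotic wells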
Arbovirus anti repeat = recorded beside Arbovirus anti, whose call it bears; inhibition, %; measured here: 10K subset replicate screen; many hits read low in the repeat;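 first of two repeat runs on a subset; 0% = infected and 100% = uninfected wells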
* marks the source's active call; other numbers are inactive results; ? = inconclusive; · = not tested or not shown. Not all compounds are listed; count on the stated rates, not on these rows.

SMILES	YopH PTP inh	RecA intein inh	Mtb betalactam	Arbovirus anti	Mtb growth	others
Cc1nn(CC(=O)Nc2cccnc2)c(=O)c2ccccc12	·	·	-6	0	-5%
N=C(N)n1c(N)nc2ccccc2c1=O	·	-1.6	-2	·	-13%
O=C(CCS(=O)(=O)CCN1CCOCC1)NCNC(=O)CCS(=O)(=O)CCN1CCOCC1	·	-3.1	-4	-2	-20%
CCCC1CCc2c(sc(NC(=O)c3cccs3)c2C(N)=O)C1 (centres undefined)	22	-26	3	-2	5%
O=c1ccccn1Cc1c(Cl)cccc1Cl	-11	-0.4	1	-3	-3%
O=C(NCc1ccco1)N1c2ccccc2Sc2ccccc21	-24	2.6	-16	8	3%	Arbovirus anti repeat=-4
COc1cc2c(cc1NC(=O)/C=C/c1ccc([N+](=O)[O-])cc1)oc1ccccc12	-22	0.6	3	6	0%
CCC(C)Sc1cc(-c2nc3ccc(C)cn3c2NCc2ccccc2)ccc1OC (centres undefined)	·	12	14	·	·
COc1ccccc1-c1nc(-c2ccncc2)no1	-24	-2.1	7	1	0%
O=C(NCc1ccccc1)NS(=O)(=O)c1ccccc1Cl	-28	-0.3	3	2	0%
Cc1ccccc1Nc1c(-c2ccccn2)nc2ccccn12	·	9.3	98	-29	?
O=C(NCCCN1CCCCC1)C1CCN(c2ncnc3c2nc2n3CCCCC2)CC1	·	-1.6	3	·	·
COc1ccc(C2CC(c3ccccc3OC(C)=O)=NN2C(=O)/C=C/c2ccccc2)cc1OC (centres undefined)	-43	25	4	-18	17%
O=C(CSC1=NCCS1)Nc1nc2ccccc2s1	-30	28	8	-7	1%
Cc1[nH]c2ccccc2c1C(=O)/C=C/c1ccccc1	-33	6.3	8	-13	9%
C=CCN1C=C2C(=O)C(C)(OC(=O)c3cccs3)C(=O)C=C2C=C1CCCC(=O)OC (centres undefined)	·	-1.1	-10	·	-4%
COCCN(C(=O)c1snc(C(N)=O)c1N)C(C(=O)NC1CCCC1)c1cc(OC)c(OC)c(OC)c1 (centres undefined)	·	-5.0	4	·	·
CC1CCCC(C)N1CCCNC(=O)Cn1ncc2c3ccccc3n(C)c2c1=O (centres undefined)	·	-1.9	5	·	·
Cc1cc(C(=O)Nc2c(C)nn(Cc3ccccc3)c2C)on1	-40	-0.7	-7	6	-3%
C=CCOc1ccc(/C=C/C(=O)Nc2ccc(C(=O)NC)cc2)cc1	-15	1.1	5	1	0%
CCOC(=O)C1=C(COC(=O)/C=C/c2ccc(OC)c(OC)c2)NC(=O)NC1C (centres undefined)	·	-1.7	0	·	·
CN(CCC1CCOCC1)C(=O)CC1C(=O)NCCN1Cc1cccc(F)c1 (centres undefined)	·	-4.7	-10	·	·
O=C(NCC1CCCN1S(=O)(=O)c1cccs1)c1ccc(F)cc1 (centres undefined)	·	-1.1	0	·	·
COc1ccc(C2c3[nH]c4ccccc4c3C[C@H]3C(=O)N(CC(C)C)CC(=O)N23)c(OC)c1 (some centres undefined)	·	-2.9	?	·	·
c1ccc(CC(Nc2ccccn2)c2ccccc2)cc1 (centres undefined)	·	7.5	2	4	0%
Clc1cccc(Cc2nn[nH]n2)c1	·	-0.4	1	7	1%
Cn1c(-c2ccccc2)cnc1NCc1cc2c(cc1[N+](=O)[O-])OCO2	-25	-4.7	5	9	-2%
CS(=O)(=O)N(CC(=O)N1CCN(Cc2ccccc2)CC1)c1cccc(F)c1	·	-2.2	-2	·	·
Nc1nc(Nc2ccccc2Br)nc(C(F)(F)F)n1	-19	0.0	-8	-3	1%	Arbovirus anti repeat=0
CCOc1ccc(OCc2cccc(C(=O)N(CC)CC)c2)cc1	·	1.3	5	7	5%
CCCCOC(=O)CSC1=C(C#N)C(c2ccccc2OCC)C(C#N)C(=O)N1 (centres undefined)	-37	1.9	0	-10	10%
CCOc1ccc(NC(=O)Nc2cc(C)on2)cc1	-7	2.2	-18	-5	-10%
CCc1cc(C(=O)Cc2nc3ccccc3[nH]2)c(O)cc1O	-8	-1.4	-11	5	-8%
CCCCSc1nnc(CSc2ncccn2)n1C	·	-3.5	-9	1	-6%
COC(=O)c1ccccc1COn1c(=O)c[n+]([O-])c2ccccc21	-22	-32	-1	-5	-4%
O=C(COc1coc(CN2CCCc3ccccc32)cc1=O)Nc1ccccc1	·	-2.9	3	·	·
COC(=O)c1cnc[nH]1	·	0.5	2	·	·
O=C(NCc1cccs1)C1CCCN(C(=O)Nc2ccc(F)cc2)C1 (centres undefined)	·	1.2	0	·	·
COc1ccc(CNS(=O)(=O)c2ccc3oc(C(=O)O)c(C)c3c2)cc1	-28	-1.0	0	0	-8%
Cc1cnc(C(=O)Nc2ccc(C(=O)N3CCCCC3)cc2)cn1	-17	-1.2	-8	1	1%
C=C1CCC[C@]2(C)C[C@H]3OC(=O)C(CN(Cc4ccc(OC)c(OC)c4)CC(C)O)[C@H]3CC12 (some centres undefined)	·	1.8	22	·	·
Cc1cc(N)ccc1-n1nc2ccccc2n1	·	4.2	35	·	·
CSc1ccccc1NC(=O)C1CCCN(S(C)(=O)=O)C1 (centres undefined)	·	-1.4	-3	·	·
Cn1c(=O)c2c(nc(N3CCC(C(N)=O)CC3)n2CCSc2nc3ccccc3s2)n(C)c1=O	·	-1.6	-6	·	·
CC(C)/C=C/C(=O)N1CCC(N2CCC(C(=O)NCc3ccccn3)CC2)CC1	·	-5.5	0	·	·

2 consecutive compounds already listed, for reference:
SMILES	YopH PTP inh	RecA intein inh	Mtb betalactam	Arbovirus anti	Mtb growth	others
CCCCOC(=O)CSC1=C(C#N)C(c2ccccc2OCC)C(C#N)C(=O)N1 (centres undefined)	-37	1.9	0	-10	10%
CCOc1ccc(NC(=O)Nc2cc(C)on2)cc1	-7	2.2	-18	-5	-10%

(more compounds)
SMILES	YopH PTP inh	RecA intein inh	Mtb betalactam	Arbovirus anti	Mtb growth	others
CCOc1ccc(-c2nnc(N3CCCCC3)c3ccccc23)cc1	-29	3.0	69	16	-1%
CCOC(=O)Cc1csc(NC(=O)CSc2nc(-c3ccccc3)c(C#N)c(=O)[nH]2)n1	·	1.8	-4	4	-5%
COc1cccc(N(C(=O)Cn2nnc(-c3ccc(F)cc3)n2)C(C(=O)NCC2CCCO2)c2ccc(Cl)cc2)c1 (centres undefined)	·	-0.6	-2	-12	-4%
Cn1cc(C(=O)C(=O)NC2CCCCC2)c2ccccc21	·	1.1	-5	·	·
CC(c1ccco1)N(C(=O)c1cccc(Br)c1)c1ccccn1 (centres undefined)	·	-1.7	-5	·	·
CCc1ccc(Nc2nc3ccccc3c(=O)s2)cc1	-19	0.7	-3	9	-2%
CC[C@H](C)[C@H](NC(N)=O)C(=O)NCCc1ccc(Cl)cc1Cl	·	4.7	4	12	6%
COc1ccc2c(c1)Cc1sc(NC(=O)c3cccs3)nc1-2	-20	0.8	-2	-8	7%
O=C(c1cccc(Cl)c1)N1CCN(Cc2ccncc2)CC1	11	·	·	3	-11%
Cc1ccc(/C=C/C(=O)OC(C)C(=O)Nc2ccc(Cl)cn2)o1 (centres undefined)	-14	0.0	2	-1	0%
Cc1c(C=C2C(=O)NC(=O)NC2=O)c(=O)n(-c2ccccc2)n1C	·	0.4	4	1	-2%
COC(=O)c1ccc2c(c1)SC1=C(CCCC1=O)N2	2	-2.8	-6	-1	5%
O=C(NCC(=O)N(c1ccccc1)C(C(=O)NC1CCCCC1)c1ccncc1)c1ccco1 (centres undefined)	-14	1.4	-3	7	-7%
O=C(N/N=C/c1cccnc1)c1cccc(S(=O)(=O)Nc2cccc(Cl)c2)c1	·	-2.2	2	0	-2%
CNC(=O)C1(CC(C)C)C=CCN1C(C)=O (centres undefined)	-12	0.3	-5	-2	3%

The last seven records of the part above open the next one.
SMILES	YopH PTP inh	RecA intein inh	Mtb betalactam	Arbovirus anti	Mtb growth	others
O=C(c1cccc(Cl)c1)N1CCN(Cc2ccncc2)CC1	11	·	·	3	-11%
Cc1ccc(/C=C/C(=O)OC(C)C(=O)Nc2ccc(Cl)cn2)o1 (centres undefined)	-14	0.0	2	-1	0%
Cc1c(C=C2C(=O)NC(=O)NC2=O)c(=O)n(-c2ccccc2)n1C	·	0.4	4	1	-2%
COC(=O)c1ccc2c(c1)SC1=C(CCCC1=O)N2	2	-2.8	-6	-1	5%
O=C(NCC(=O)N(c1ccccc1)C(C(=O)NC1CCCCC1)c1ccncc1)c1ccco1 (centres undefined)	-14	1.4	-3	7	-7%
O=C(N/N=C/c1cccnc1)c1cccc(S(=O)(=O)Nc2cccc(Cl)c2)c1	·	-2.2	2	0	-2%
CNC(=O)C1(CC(C)C)C=CCN1C(C)=O (centres undefined)	-12	0.3	-5	-2	3%
CCCN(C(=O)C1=COCCO1)c1c(N)n(Cc2ccccc2)c(=O)[nH]c1=O	·	1.4	-2	·	·
CC(C)C(C)NC(=O)COC(=O)/C=C/c1ccc(S(=O)(=O)N2CCc3ccccc32)cc1 (centres undefined)	·	-1.0	1	-3	-4%
COc1ccc(NS(=O)(=O)c2ccc(SC)cc2)cc1	-28	2.5	10	13	14%
COc1cccc(-n2c(Cn3nc(C(F)(F)F)cc3C)n[nH]c2=S)c1	-29	-1.0	-8	-6	0%
CC(C)(C)c1ccc(OCC(=O)NNC(=O)c2cccnc2)cc1	·	-1.4	3	-1	-1%
CCN(CCCNC(=O)CCn1c(=O)[nH]c2ccccc2c1=O)c1cccc(C)c1	-19	-1.3	-5	-2	-4%
O=[N+]([O-])c1ccc(N2CCOCC2)c2cccnc12	·	21	-1	-1	-5%
O=C(CCCOc1ccccc1)Nc1ccc2c(c1)OCCO2	-31	0.2	89	3	8%	Arbovirus anti repeat=0
COc1ccc(-c2cc(-c3ccccc3)nc(=O)[nH]2)cc1	·	-0.8	-4	·	·
CCN(C(=O)COC(=O)/C=C/c1ccc(O)c(OC)c1)C1CCS(=O)(=O)C1 (centres undefined)	-26	-5.0	0	2	-2%
COc1ccc2c(c1)c1nnc(SCC(=O)N3CCCCC3C)nc1n2C (centres undefined)	-10	·	·	-14	-3%
COc1ccc(-n2nc3cc(C)c(NC(=O)CC(C)C)cc3n2)cc1	-27	-5.1	·	-2	-15%	Arbovirus anti repeat=-1
O=C(NCCN1CCN(c2ccccc2)CC1)c1cccc(Br)c1	-26	1.1	-1	3	-1%
COc1ccc(CCn2c(=N)c(C(=O)NCCN3CCOCC3)cc3c(=O)n4cccc(C)c4nc32)cc1OC	·	1.6	9	·	·
CCc1ccc(OCC(=O)N2CC(C(=O)OC)Oc3ccccc32)cc1 (centres undefined)	·	0.0	54	·	·
O=C(COc1ccc(-n2cnnn2)cc1)Nc1cccc(Cl)c1Cl	·	2.5	-3	·	·
O=C(NCCN1CCCC1)c1ccc(Cn2c(=S)[nH]c3cc4c(cc3c2=O)OCO4)cc1	-6	-1.0	-3	16	-4%
Cc1nc2ccccc2c(=O)n1NC(=O)/C=C/c1ccc(Br)cc1	-22	-0.6	-11	2	2%
Cc1ccc(NC2SC(=O)N(CC(=O)O)C2=O)cc1 (centres undefined)	-28	-3.3	15	5	0%
CCOCC(=O)Nc1nc2ccc(OC)cc2s1	-2	2.2	95	1	1%
O=C(NNC(=O)C1CCN(Cc2ccc(F)cc2Cl)CC1)Nc1ccc([N+](=O)[O-])cc1	·	-3.4	2	-7	8%
O=C(NCC1CCCCC1)C1CCN(C(=O)NC2CCCCC2)CC1	-34	-0.9	2	8	-5%
O=S1(=O)CC(O)C(NCc2cccnc2)C1 (centres undefined)	-36	0.2	7	3	-2%
COCCCNC(=O)c1c[nH]c2ccc(S(=O)(=O)N3CCC4(CC3)OCCO4)cc2c1=O	·	-6.1	-3	-2	4%
Cc1ccc(S(=O)(=O)N(CCC#N)CCN2CCCC2)cc1	-37	-2.3	-9	3	-10%
CCn1ncc(C2C(C(=O)Nc3ccc(C)cn3)=C(C)NC3=C2C(=O)CCC3)c1C (centres undefined)	-22	-10	5	-3	-2%
CC1CCC(NC(=O)C2CCN(S(=O)(=O)c3ccc4nc5c(c(C(=O)O)c4c3)CC(C)CC5)CC2)CC1 (centres undefined)	·	-5.7	8	6	3%
COc1ccc(OC)c(S(=O)(=O)NC(C)(C)C)c1	-34	-0.6	-5	6	-6%
Cn1cnnc1SCc1ccc(C(=O)n2ncc(C#N)c2N)cc1	-6	12	-2	-2	-10%
Cc1ccc(S(=O)(=O)N2CCN(c3ccc([N+](=O)[O-])c(Sc4nncn4C)c3)CC2)cc1	-21	3.4	-11	-3	9%
CC1Cc2ccccc2N1C(=O)CSc1nnc(C2CC2)n1C (centres undefined)	·	-0.6	6	5	-1%
O=C(Nc1ccccc1Cc1ccccc1)c1ccncc1	·	0.1	-7	·	·
CCSC1=N/C(=C\c2ccc(C)s2)C(=O)S1	-4	1.0	15	-4	7%
